# DUX4 inh: blocks DUX4-driven transcriptional activation | hit rate 0.8% among 37,000 | AID 1224904 | 293T-iDUX4 ZSCAN4-Gaussia luciferase reporter, 24 h; stronger effect = lower value | activity change, negative = inhibition, % (concentration not given with the values);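 active = -10% or lower and over 25 points stronger than a control reporter; inconclusive = -10% or lower with a smaller gap; inactive = above -10%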;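 also: 0% = median of neutral control wells and -100% = median of positive control wells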
# DUX4 inh difference: recorded beside DUX4 inh, whose call it bears; Gaussia minus Italica difference, %; measured here: selective DUX4 reporter inhibition;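 worked out from the two reporters; negative = selective loss of the DUX4 reporter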
# DUX4 inh control: recorded beside DUX4 inh, whose call it bears; activity change, negative = inhibition, %; measured here: Italica tet-on control reporter;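 0 = neutral control and -100 = positive control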
# Starred values were filed as active, the others as inactive; ? = inconclusive; / = not tested or not shown. The list is partial. The share of hits here may be higher or lower than overall.
SMILES,DUX4 inh,DUX4 inh difference,DUX4 inh control
COc1ccc(CN(C)C[C@@H]2Oc3ccc(NC(=O)Nc4c(C)noc4C)cc3C(=O)N([C@@H](C)CO)C[C@@H]2C)cc1,4.6,-6.3,10.9
CCC(=O)N1C[C@@H](C)[C@@H](OC)CN(C)C(=O)c2cc(NC(=O)C3CC3)ccc2OC[C@@H]1C,-7.6,-8.3,0.6
CNC[C@@H]1Oc2c(NC(=O)Nc3c(C)noc3C)cccc2C(=O)N([C@H](C)CO)C[C@@H]1C,-2.3,0.2,-2.5
COc1cccc(-c2ccc3c(c2)[C@@H]2[C@@H](CCN2C(=O)CN2CCOCC2)[C@H](CO)N3)c1,25.8,12.7,13.1
COc1cccc(-c2ccc3n(c2=O)C[C@@H]2[C@@H](CO)[C@H](C(=O)NCC4CC4)N(C)[C@H]32)c1,-2.4,1.5,-4.0
CCC(=O)NC[C@H]1[C@@H](c2ccc(-c3ccc(OC)cc3)cc2)[C@@H](CO)N1C(C)=O,-6.1,-5.2,-0.9
COCC(=O)N[C@@H]1C=C[C@H](CC(=O)N2CCCCC2)O[C@@H]1CO,-1.8,-3.8,2.0
Cc1ccccc1S(=O)(=O)N1C[C@H](O)COC[C@@H]2O[C@H](CC(=O)NCc3ccccc3Cl)CC[C@H]21,-1.7,1.2,-3.0
CCCNC(=O)N1CC2(CCN(S(=O)(=O)CC)CC2)c2c(n(C)c3cc(OC)ccc23)[C@H]1CO,9.8,18.4,-8.6
C[C@H](NC(=O)C[C@H]1CC[C@@H]2[C@H](COC[C@H](O)CN2C(=O)Nc2cc(Cl)cc(Cl)c2)O1)c1ccccc1,11.9,16.5,-4.6
COc1ccc(S(=O)(=O)N2C[C@H](O)COC[C@H]3O[C@H](CC(=O)N[C@H]4CCN(Cc5ccccc5)C4)CC[C@@H]32)cc1,-5.7,-11.1,5.4
C[C@@H]1CN([C@H](C)CO)S(=O)(=O)c2ccc(/C=C/c3ccccc3)cc2O[C@@H]1CN(C)C(=O)Nc1cccc(F)c1,0.4,-0.7,1.1
CN1C(=O)c2cc(NC(=O)c3ccno3)ccc2OC[C@H]2O[C@@H](CC(=O)NC3Cc4ccccc4C3)CC[C@@H]21,2.2,-0.9,3.1
COc1ccc(NC(=O)N2CCCCN3[C@@H](CO)[C@H](c4ccc(C#CCC(C)C)cc4)[C@@H]3C2)cc1,-0.9,7.9,-8.8
O=C(c1ccccn1)N1CC[C@@H]2[C@@H](CO)Nc3ccc(-c4ccc(F)cc4)cc3[C@@H]21,5.5,0.8,4.7
O=S(=O)(c1ccccc1F)N1CC[C@H]2[C@H](CO)Nc3ccc(-c4ccccc4F)cc3[C@H]21,-3.1,0.9,-4.0
O=C(NC1CCCC1)N1CCCCN2[C@@H](CO)[C@@H](c3ccc(-c4cncnc4)cc3)[C@@H]2C1,4.5,-3.5,8.0
COc1ccccc1CNC(=O)C[C@@H]1CC[C@@H]2[C@H](COC[C@@H](O)CN2C(=O)Nc2ccc(Cl)cc2)O1,6.3,4.7,1.6
CCNC(=O)C[C@@H]1CC[C@H]2[C@@H](COC[C@H](O)CN2C(=O)C2CCCC2)O1,1.2,-6.0,7.3
N#Cc1ccc(-c2cccc(-c3nc(C(=O)O)cc4c3[C@@H](CCO)N(CC3CCOCC3)C4)c2)cc1,-5.3,2.8,-8.0
COc1ccc(-c2ccc3n(c2=O)C[C@H]2[C@H](CO)[C@@H](C(=O)N4CCOCC4)[C@@H]3N2C)cc1,-1.8,-1.8,0.0
O=C(c1cnccn1)N1CC2(C1)[C@H](c1ccccc1)[C@H](CO)N2C(=O)c1ccccc1,2.1,3.3,-1.2
COc1ccc(S(=O)(=O)Nc2ccc3c(c2)C(=O)N([C@H](C)CO)C[C@@H](C)[C@@H](CN(C)C(=O)CCC(F)(F)F)OCCCC[C@H](C)O3)cc1,1.9,4.1,-2.2
CC(=O)N1[C@@H](CO)[C@@H]2c3ccccc3N(S(=O)(=O)c3ccccc3C)C[C@@H]21,0.5,0.9,-0.4
CN1c2ccc(-c3ccccc3)cc2[C@H]2[C@H](CCN2C(=O)CN2CCOCC2)[C@@H]1CO,21.8,44.0,-22.2
CO[C@@H](C(=O)N(C)C[C@H]1OCc2ccccc2-c2c(n(C)c3ccccc23)C(=O)N([C@@H](C)CO)C[C@H]1C)c1ccccc1,7.6,2.2,5.4
COc1cccc(S(=O)(=O)Nc2ccc3c(c2)C(=O)N(C)C[C@H](OC)[C@@H](C)CN(C(=O)Cc2cccnc2)[C@@H](C)CO3)c1,12.3,3.8,8.5
CN(C)C(=O)c1cccc(-c2ccc3c(c2)[C@H]2[C@H](CCN2C(=O)c2ccncc2)[C@H](CO)N3C)c1,19.9,19.3,0.6
Cc1ccccc1S(=O)(=O)N(C)C[C@@H]1OCc2ccccc2-c2ccccc2C(=O)N([C@@H](C)CO)C[C@H]1C,?,/,/
O=C(C1CC1)N1CCCCN2[C@H](CO)[C@H](c3ccc(C#CC4CCCC4)cc3)[C@H]2C1,-0.6,-2.7,2.2
COc1ccc(S(=O)(=O)Nc2ccc3c(c2)C(=O)N([C@@H](C)CO)C[C@@H](C)[C@@H](CN(C)C(=O)Nc2cccc4ccccc24)OCCCC[C@@H](C)O3)cc1,2.8,18.5,-15.7
CO[C@@H]1CN(C)C(=O)c2cc(NC(=O)Nc3ccccc3Cl)ccc2OC[C@@H](C)N(S(=O)(=O)CC(F)(F)F)C[C@H]1C,-2.6,6.6,-9.2
CN(C)C(=O)c1ccc(-c2ccc([C@H]3[C@@H](CO)N4CCCCN(CC5CC5)C[C@H]34)cc2)cc1,23.5,7.2,16.3
CO[C@@H]1CN(C)C(=O)c2cc(NC(=O)Nc3c(C)noc3C)ccc2OC[C@H](C)N(CC2CC2)C[C@@H]1C,-6.1,-6.6,0.5
OC[C@@H]1[C@H](c2ccc(Br)cc2)[C@@H]2CNCCCCN12,10.8,7.3,3.5
CC(=O)N(C[C@@H]1[C@@H](c2ccc(C3=CCCC3)cc2)[C@@H](CO)N1CC1CC1)C(C)C,1.0,-0.7,1.7
CC(=O)N1C[C@H]2[C@@H](c3ccccc31)[C@H](CO)N2C(=O)Nc1ccc(F)cc1,-1.3,-2.7,1.4
CCCNC(=O)C[C@H]1CC[C@H]2[C@@H](COc3ccc(NC(=O)Cc4cccs4)cc3C(=O)N2C)O1,2.1,-1.3,3.4
O=S(=O)(NC[C@H]1[C@H](c2ccccc2)[C@@H](CO)N1CC1CC1)c1ccccc1,-3.2,-0.5,-2.7
CCCC#Cc1ccc([C@@H]2[C@@H](CO)N3CCCCN(Cc4cncnc4)C[C@@H]23)cc1,11.1,1.4,9.8
C[C@H](CO)N1C[C@H](C)[C@H](CN(C)C)Oc2ccc(NS(C)(=O)=O)cc2C1=O,1.4,1.0,0.4
CCCNC(=O)C[C@H]1CC[C@H]2[C@@H](COC[C@H](O)CN2C(=O)Nc2ccccc2OC)O1,8.8,-5.5,14.3
CO[C@H]1CN(C)C(=O)c2cc(NS(=O)(=O)CC(F)(F)F)ccc2OC[C@@H](C)N(Cc2cccnc2)C[C@@H]1C,0.9,2.2,-1.3
COc1ccccc1CN1[C@H](CO)[C@@H]2c3ccccc3N(C(=O)c3cccnc3)C[C@@H]21,4.2,2.9,1.3
CC=Cc1ccc2n(c1=O)C[C@@H]1[C@@H](CO)[C@H](C(=O)N(C)C)N(CC3CCOCC3)[C@H]21 (mixture of isomers),3.1,-3.2,6.3
CN1C(=O)c2cc(NC(=O)Cc3ccccc3)ccc2OC[C@@H]2O[C@H](CC(=O)NCc3ccc(Cl)cc3)CC[C@@H]21,-2.0,-3.2,1.2
CN1C(=O)c2cc(NC(=O)C3CC3)ccc2OC[C@H]2O[C@@H](CC(=O)Nc3cccc(Cl)c3)CC[C@@H]21,-1.4,-1.3,-0.1
O=C([C@@H]1[C@@H](CO)[C@@H]2Cn3c(ccc(-c4ccncc4)c3=O)[C@@H]2N1CCC(F)(F)F)N1CCOCC1,-2.0,4.2,-6.2
O=C(Nc1cc(F)ccc1F)N1C[C@@H]2[C@H](c3ccccc31)[C@H](CO)N2C(=O)c1ccccc1,-2.9,-2.8,-0.1
Cc1ccccc1S(=O)(=O)N1CC[C@@H]2[C@@H](CO)N(C)c3ccc(-c4cccc(C#N)c4)cc3[C@@H]21,?,/,/
N#Cc1cccc(-c2ccc(C3[C@H]4CNC[C@@H]3N4S(=O)(=O)Cc3ccccc3)cc2)c1 (stereo not given in full),12.5,7.7,4.8
CC=Cc1ccc2n(c1=O)C[C@@H]1[C@@H](CO)[C@H](C(=O)Nc3ccccc3)N(CC3CC3)[C@H]21 (mixture of isomers),5.3,21.5,-16.1
O=C(CC1CC1)N1CC2(C1)[C@H](c1ccccc1)[C@@H](CO)N2Cc1ccc(F)cc1,-1.7,-0.9,-0.9
COc1ccc(S(=O)(=O)Nc2ccc3c(c2)[C@@H]2C[C@@H](CC(=O)NCC4CC4)O[C@H](CO)[C@@H]2O3)cc1,7.6,10.5,-3.0
CC=Cc1ccc2n(c1=O)C[C@@H]1[C@@H](CO)[C@H](C(=O)NCCOC)[C@H]2N1Cc1ccccc1OC (mixture of isomers),1.0,-2.4,3.3
C[C@H]1CN([C@@H](C)CO)S(=O)(=O)c2ccc(C#CC3(O)CCCC3)cc2O[C@@H]1CN(C)C(=O)Nc1cccc(F)c1,-1.5,-1.1,-0.5
CO[C@H]1CN(C)C(=O)c2cc(NC(=O)CC(F)(F)F)ccc2OC[C@H](C)N(S(=O)(=O)c2cn(C)cn2)C[C@H]1C,3.6,0.9,2.7
C[C@H]1CN([C@@H](C)CO)C(=O)CCCn2nncc2CO[C@H]1CN(C)Cc1ccc(-c2ccccc2)cc1,?,/,/
C[C@@H](O)C#Cc1ccc([C@@H]2[C@@H](CO)N3CCCCN(C(=O)c4ccc5c(c4)OCO5)C[C@H]23)cc1,33.3,31.4,1.9
CCN1CC(=O)N2[C@H](CO)[C@@H](c3ccc(Br)cc3)[C@H]2C1,18.5,10.7,7.8

# Part of the list above in a different format:
# Screens in order – DUX4 inh, DUX4 inh difference, DUX4 inh control
CN1C(=O)c2cc(NC(=O)C3CC3)ccc2OC[C@H]2O[C@@H](CC(=O)Nc3cccc(Cl)c3)CC[C@@H]21
  -1.4, -1.3, -0.1
O=C([C@@H]1[C@@H](CO)[C@@H]2Cn3c(ccc(-c4ccncc4)c3=O)[C@@H]2N1CCC(F)(F)F)N1CCOCC1
  -2.0, 4.2, -6.2
O=C(Nc1cc(F)ccc1F)N1C[C@@H]2[C@H](c3ccccc31)[C@H](CO)N2C(=O)c1ccccc1
  -2.9, -2.8, -0.1
Cc1ccccc1S(=O)(=O)N1CC[C@@H]2[C@@H](CO)N(C)c3ccc(-c4cccc(C#N)c4)cc3[C@@H]21
  ?, /, /
N#Cc1cccc(-c2ccc(C3[C@H]4CNC[C@@H]3N4S(=O)(=O)Cc3ccccc3)cc2)c1 (stereo not given in full)
  12.5, 7.7, 4.8
CC=Cc1ccc2n(c1=O)C[C@@H]1[C@@H](CO)[C@H](C(=O)Nc3ccccc3)N(CC3CC3)[C@H]21 (mixture of isomers)
  5.3, 21.5, -16.1
O=C(CC1CC1)N1CC2(C1)[C@H](c1ccccc1)[C@@H](CO)N2Cc1ccc(F)cc1
  -1.7, -0.9, -0.9
COc1ccc(S(=O)(=O)Nc2ccc3c(c2)[C@@H]2C[C@@H](CC(=O)NCC4CC4)O[C@H](CO)[C@@H]2O3)cc1
  7.6, 10.5, -3.0
CC=Cc1ccc2n(c1=O)C[C@@H]1[C@@H](CO)[C@H](C(=O)NCCOC)[C@H]2N1Cc1ccccc1OC (mixture of isomers)
  1.0, -2.4, 3.3
C[C@H]1CN([C@@H](C)CO)S(=O)(=O)c2ccc(C#CC3(O)CCCC3)cc2O[C@@H]1CN(C)C(=O)Nc1cccc(F)c1
  -1.5, -1.1, -0.5
CO[C@H]1CN(C)C(=O)c2cc(NC(=O)CC(F)(F)F)ccc2OC[C@H](C)N(S(=O)(=O)c2cn(C)cn2)C[C@H]1C
  3.6, 0.9, 2.7
C[C@H]1CN([C@@H](C)CO)C(=O)CCCn2nncc2CO[C@H]1CN(C)Cc1ccc(-c2ccccc2)cc1
  ?, /, /

# Further results.
SMILES,DUX4 inh,DUX4 inh difference,DUX4 inh control
C[C@@H]1CN([C@H](C)CO)S(=O)(=O)c2ccc(C#CCC3CCCC3)cc2O[C@H]1CN(C)C(=O)c1cnccn1,-1.7,3.7,-5.3
C[C@@H]1CN([C@H](C)CO)C(=O)CCCn2nncc2CO[C@@H]1CN(C)Cc1cccc(C(=O)O)c1,2.3,-0.6,2.9
C[C@H](CO)N1C[C@H](C)[C@H](CN(C)S(=O)(=O)c2ccc(Cl)cc2)OCCCC[C@H](C)Oc2ccc(NS(=O)(=O)c3cn(C)cn3)cc2C1=O,2.0,-1.0,3.0
CN1c2ccc(-c3ccccc3)cc2[C@@H]2[C@@H](CCN2C(=O)Cc2ccccc2)[C@@H]1CO,5.8,9.4,-3.5
C[C@@H]1CCCCO[C@H](CN(C)S(=O)(=O)c2ccccc2)[C@H](C)CN([C@@H](C)CO)C(=O)c2cc(NS(C)(=O)=O)ccc2O1,1.0,-2.3,3.3
COc1ccc(CN2[C@H](CO)[C@@H]3c4ccccc4N(C(=O)NC(C)C)C[C@@H]32)cc1,4.0,3.1,0.9
O=C(C[C@H]1C[C@H]2c3cc(NS(=O)(=O)c4ccc(F)cc4)ccc3O[C@H]2[C@H](CO)O1)NCc1ccc(Cl)cc1,?,/,/
C[C@@H]1CN([C@H](C)CO)C(=O)CCCn2nncc2CO[C@H]1CN(C)S(=O)(=O)c1cccc(F)c1,-2.2,-7.0,4.7
COc1ccc2c3c([nH]c2c1)[C@@H](CO)N(C(=O)c1ccc(F)cc1)CC31CN(C)C1,1.0,4.2,-3.2
CC(C)NC(=O)N[C@@H]1CC[C@H](CC(=O)NCCCN(C)C)O[C@@H]1CO,-4.1,0.6,-4.6
N#Cc1cccc(-c2ccc3c(c2)[C@H]2[C@H](CCN2C(=O)C2CCCCC2)[C@@H](CO)N3)c1,?,/,/
CN1C(=O)c2cc(NC(=O)c3cccc(F)c3)ccc2OC[C@H]2O[C@@H](CC(=O)N3CCc4ccccc4C3)CC[C@@H]21,1.0,-0.4,1.4
